Vaccinia mCherry: qHTS for Stage-Specific Inhibitors of Vaccinia Orthopoxvirus: mCherry Reporter Primary qHTS; AID 720579, 2013; Vaccinia virus mCherry reporter infection, fluorescence; about a quarter of the inactives have no number; Potency, µM (highest dose often 36.5 µM), for the others: at the top dose activity change, negative = inhibition, actives largely listed as inhibitors; actives 0.63% (n = 310,000); active = well fitted inhibition curve with a large enough effect; inconclusive = small, poorly fitted or top-dose-only effect; inactive = no such curve, though single readings can be large or run the other way; tested in A549 cells; note: nearly all actives have a fitted effect of over 35% in size; inactives centre near -10
Vaccinia Venus: qHTS for Stage-Specific Inhibitors of Vaccinia Orthopoxvirus: Venus Reporter Primary qHTS; Vaccinia virus Venus reporter expression, fluorescence; Potency, µM (titrated, usually from 36.5 µM), for inactives: at the top dose activity change, negative = inhibition, hits mostly inhibitors; actives 0.46% (n = 330,000); AID 720580, 2013; active means well fitted inhibition curve with a large enough effect; inconclusive means small, poorly fitted or top-dose-only effect; inactive means no such curve, though single readings can be large or run the other way; tested in A549 cells; note: nearly all actives have a fitted effect of over 30% in size; inactives centre near -10
An asterisk follows results filed as active; i = inactive; ? = inconclusive; . = no result given; [ ] = remark or other dose. % is set by controls: 0 for no effect and ±100 for the full control effect; potency is the fitted concentration of half-maximal effect.

Preview (4 entries):
1. CSc1cc(-c2ccncc2)nc(-c2ccc(Cl)cc2)c1
2. Cc1ccc(C(=O)O/N=C/c2ccc(N(C)C)cc2)cc1
3. CC(C)N(Cc1ccccc1)S(=O)(=O)c1cccs1
4. Cc1oc(-c2ccc(Cl)cc2)cc1C(=O)NC1CCN(Cc2ccccc2)CC1

Assay by compound | 1 | 2 | 3 | 4
Vaccinia mCherry | ? | -3.8% | i | -13.9%
Vaccinia Venus | -21.8% | -13.6% | -7.1% | -10.2%

This part in full (from the top)
1. CSc1cc(-c2ccncc2)nc(-c2ccc(Cl)cc2)c1
2. Cc1ccc(C(=O)O/N=C/c2ccc(N(C)C)cc2)cc1
3. CC(C)N(Cc1ccccc1)S(=O)(=O)c1cccs1
4. Cc1oc(-c2ccc(Cl)cc2)cc1C(=O)NC1CCN(Cc2ccccc2)CC1
5. CCCCN(C(=O)CNC(=O)c1ccco1)C(C(=O)NC1CCCCC1)c1ccc(OC)cc1OC (stereo not given)
6. CN1C(=O)[C@H]2[C@@H](/C=C/c3ccccc3)N3C(=O)CN(Cc4ccccn4)C(=O)[C@@]3(Cc3ccccc3)[C@H]2C1=O
7. CCn1c(SCC(=O)N2CCCCCC2)nc2c(c1=O)SCC2
8. CCOC(=O)[C@@H]1[C@H]2COc3cc(OC)ccc3[C@H]2N2C(=O)N(c3ccc(Br)cc3)C(=O)[C@]12C

Assay by compound | 1 | 2 | 3 | 4 | 5 | 6 | 7 | 8
Vaccinia mCherry | ? | -3.8% | i | -13.9% | i | -14.0% | i | i
Vaccinia Venus | -21.8% | -13.6% | -7.1% | -10.2% | -15.0% | -1.9% | -11.4% | -9.3%

9. O=C(N/N=C1\CCCc2ccccc21)c1ccccc1Cl
10. COC(=O)c1cc(S(=O)(=O)NCC2CCN(Cc3ccc(C)cc3)CC2)cn1C
11. COc1c(C(=O)NNC(=O)c2ccccc2Cl)csc1Br
12. Cc1ccc(CN2CCN(Cc3ccc(O)cc3)CC2CCO)o1 (stereo not given)
13. C/C(=N\NC(=O)CN(c1ccccc1)S(C)(=O)=O)c1ccccc1O
14. C=CCOc1nc(N(C)C)nc(N(C)C)n1
15. FCCCOc1ccc(-c2ccnc(-c3ccccc3)n2)cc1
16. O=C(CCS(=O)(=O)c1ccccc1)N1CCN(c2ccc(F)cc2)CC1

Assay by compound | 9 | 10 | 11 | 12 | 13 | 14 | 15 | 16
Vaccinia mCherry | -4.4% | -20.4% | -16.8% | -4.9% | ? | -0.7% | . | -23.1%
Vaccinia Venus | -19.1% | -8.7% | -16.5% | -13.7% | -4.0% | -22.8% | -5.2% | -8.2%

17. COCc1cc(/C=N\NC(=O)Cc2ccc(Cl)cc2)ccc1OC
18. O=C1N[C@@H](Cc2ccccc2)C(=O)N2[C@@H]1C[C@@]1(Br)c3ccccc3N(S(=O)(=O)c3ccccc3)[C@@H]21
19. COc1ccc(CCNc2ncnc3c2c(-c2ccccc2)cn3-c2cccc(Cl)c2)cc1OC
20. CCOCCCNC(C(=O)Nc1ccc(OC)c(Cl)c1)c1ccccc1 (stereo not given)
21. S=C(NCCc1ccc(Cl)cc1)NCc1ccco1
22. CC(=O)N(Cc1ccc(F)cc1)C1=C(NCc2ccccc2)C(=O)c2ccccc2C1=O
23. C/C=C(\C)C(=O)NCCN1C2=NC[C@@H](Cc3ccccc3)N2C[C@H]1Cc1ccc(O)cc1
24. CC(C)c1ccccc1NC(=O)C1CCCN(C(=O)c2ccc(Cl)cc2)C1 (stereo not given)

Assay by compound | 17 | 18 | 19 | 20 | 21 | 22 | 23 | 24
Vaccinia mCherry | -18.6% | -5.2% | -19.2% | -13.1% | -13.3% | 2.51µM* | i | i
Vaccinia Venus | -4.2% | -10.0% | -11.1% | -3.6% | -4.2% | 3.55µM* | -0.9% | -10.7%

25. Cc1nc2ccc(Br)cc2c2c1CC(CBr)O2 (stereo not given)
26. O=C1CC[C@H](N2C(=O)c3ccccc3C2=O)C(=O)N1
27. O=C(CN1CCCC1)Nc1ccc(Oc2ccc(NC(=O)CN3CCCC3)cc2)cc1
28. O=C(c1cc(F)c(F)cc1Cl)N1CCN(CCc2ccccc2)CC1
29. COc1cc(NC(=O)C2CCN(S(=O)(=O)c3ccc(N4CCCC4=O)cc3)CC2)cc(OC)c1
30. O=C(c1cc2ccccc2o1)N1CC=C(c2ccccc2)CC1
31. COc1cccc(CC(=O)Nc2cccc3ccccc23)c1
32. CCOc1ccc(-n2nc(C(=O)NCCOC)c3ccccc3c2=O)cc1

Assay by compound | 25 | 26 | 27 | 28 | 29 | 30 | 31 | 32
Vaccinia mCherry | -13.6% | -13.8% | i | i | -13.0%[7.34 µM] | i[7.34 µM] | i | .
Vaccinia Venus | -30.0% | -10.4% | -7.4% | -16.8% | -4.7%[7.34 µM] | -5.1%[7.34 µM] | -2.8% | -0.3%

33. CCN(CC)CCNC(=O)c1c(O)c2cc(OC)c(OC)cc2[nH]c1=O
34. CCOC(=O)c1ccc(NC(=O)c2c(N)n(C)c(=O)[nH]c2=O)cc1
35. O=C(Nc1ccccc1Cl)NC1(C(=O)NCC2CCCO2)CCCCC1 (stereo not given)
36. CCOC(=O)c1[nH]c(C)c(CCC(=O)Nc2c(C)cc(C)cc2C)c1C
37. CCOC(=O)C(CC)(CC)/C(C)=N/NC(=O)CC#N
38. COc1ccc(C(=O)NC(=S)N2CCCCC2)cc1[N+](=O)[O-]
39. Cc1cccc(C)c1NC(=O)CNC(=O)C(Cc1ccccc1)NC(=O)c1ccccc1 (stereo not given)
40. C=CC[C@@H](CC(=O)OC(C)(C)C)C(=O)OC[C@@H]1CCCN1C(=O)[C@@H](CC=C)CC(=O)N[C@@H](CO)Cc1ccccc1

Assay by compound | 33 | 34 | 35 | 36 | 37 | 38 | 39 | 40
Vaccinia mCherry | -19.4% | -4.6% | i | -16.3% | -18.4% | -14.4% | ? | i
Vaccinia Venus | -24.7% | -5.8% | -1.4% | -12.1% | -5.6% | -10.1% | -20.8% | -24.3%

41. O=[N+]([O-])c1cc2c(cc1/C=N/n1c(-c3ccccc3)n[nH]c1=S)OCO2
42. Cc1ccc2oc(-c3cccc(NC(=O)c4ccc(N5CCC(C)CC5)c([N+](=O)[O-])c4)c3)nc2c1
43. N#Cc1ccccc1S(=O)(=O)N1CCN(C(=O)C2CCC2)CC1
44. O=C(Nc1ccccc1N1CCOCC1)c1cccs1
45. O=C(C[N+]1(CC(O)c2ccccc2)CCOCC1)c1ccccc1 (stereo not given)
46. CC(C)C[C@@H]1NC(=O)[C@H](Cc2ccc(O)cc2)NC(=O)c2cc([N+](=O)[O-])cc(I)c2NCCC[C@@H](C(N)=O)NC1=O
47. CC(C)n1c(=O)c(C=Nc2ccc(F)cc2)c(O)n(Cc2ccco2)c1=O
48. COc1ccc(C)cc1-n1c(SCC(=O)Nc2cc(C)on2)nc2ccccc2c1=O

Assay by compound | 41 | 42 | 43 | 44 | 45 | 46 | 47 | 48
Vaccinia mCherry | -0.4% | i | i | -10.2% | -0.8% | -12.8% | ? | -8.4%
Vaccinia Venus | -4.3% | -13.7% | -5.8% | -5.7% | -8.8% | -4.8% | -10.5% | -3.4%

49. Cc1ccc(CNC(=O)Cn2c(=O)n(-c3ccc(C)c(F)c3)c(=O)c3sc4ccccc4c32)cc1
50. CC(CC(=O)Nc1ccc2c(c1)c(=O)n(C)n2Cc1ccc(F)cc1)C(F)(F)F (stereo not given)
51. Nc1c(-c2nc(-c3ccccc3)cs2)c2ccccn2c1C(=O)c1ccc2c(c1)OCO2
52. Cc1ccc(NC(=O)COc2ccc(N3CC(C(N)=O)CC3=O)cc2)c(C)c1 (stereo not given)
53. O=c1c2ccccc2sc2ccc(NCCCN3CCOCC3)cc12
54. O=C(c1ccc(S(=O)(=O)c2ccccc2)cc1)N1CCc2ccccc2C1
55. Cc1n[nH]c(C)c1NC(=O)c1cc([N+](=O)[O-])ccc1Cl
56. COC(=O)c1ccc(Cl)c(NC(=O)CSc2ncn[nH]2)c1

Assay by compound | 49 | 50 | 51 | 52 | 53 | 54 | 55 | 56
Vaccinia mCherry | -10.7% | i | -26.9% | 8.4% | -5.4% | -3.2% | i | -7.2%
Vaccinia Venus | -10.2% | -10.9% | -17.8% | 3.3% | -2.3% | 4.6% | -0.1% | 0.8%

The final three entries of the section before open the next one.
54. O=C(c1ccc(S(=O)(=O)c2ccccc2)cc1)N1CCc2ccccc2C1
55. Cc1n[nH]c(C)c1NC(=O)c1cc([N+](=O)[O-])ccc1Cl
56. COC(=O)c1ccc(Cl)c(NC(=O)CSc2ncn[nH]2)c1
57. COCCN(Cc1ccc(C)cc1)C(=O)[C@H]1O[C@@H](n2ccc(=O)[nH]c2=O)[C@H](O)[C@@H]1O
58. O=C(/C=C/c1ccco1)NCCc1ccc(F)cc1
59. Cc1nc2nc(-c3ccc(Cl)cc3)cn2nc1C
60. CCOc1ccc(-c2nnn(CC#N)n2)cc1OC
61. O=C(CNCCc1ccc(Cl)cc1Cl)NCc1ccco1
62. COc1cccc(C2C(C(=O)Nc3ccc(Cl)cc3)=C(C)Nc3nc4ccccc4n32)c1OC (stereo not given)
63. Cn1c(SCC(=O)NCCc2ccccc2)ncc(C(=O)Nc2ccc(F)cc2)c1=O
64. COCCN(C(=O)CSc1n[nH]c(-c2ccccc2)n1)c1c(N)n(Cc2ccccc2)c(=O)[nH]c1=O

Assay by compound | 54 | 55 | 56 | 57 | 58 | 59 | 60 | 61 | 62 | 63 | 64
Vaccinia mCherry | -3.2% | i | -7.2% | 25.1% | ? | ? | -17.5% | -2.9% | -23.0% | -4.9% | -13.5%
Vaccinia Venus | 4.6% | -0.1% | 0.8% | 4.0% | -8.9% | 0.0% | -19.7% | -21.5% | -22.5% | -5.1% | -6.0%

65. Cc1c(Cl)c([N+](=O)[O-])nn1Cc1ccc(C(=O)N/N=C\c2cc(Cl)ccc2O)o1
66. C=CCSC1=Nc2sccc2C2=NC(=O)CN12
67. Cc1cccc2sc(NNC(=O)c3ccc(S(=O)(=O)N4CC(C)CC(C)C4)cc3)nc12 (stereo not given)
68. Cc1cc(C)c(S(=O)(=O)NCc2nc3nc(C)cc(C)n3n2)c(C)c1
69. CCCS(=O)(=O)c1nc(S(=O)(=O)c2ccc(C)cc2)c(NCc2ccccc2Cl)s1
70. Cc1cc(C)n2nc(C(=O)OCC(=O)c3ccccc3)nc2n1
71. CC(=O)c1ccc(N2CCN(S(=O)(=O)c3ccc4[nH]c5c(c4c3)CCCCC5)CC2)cc1
72. COC(=O)C1=C(C(=O)c2ccccc2)C(c2ccc(O)c(OC)c2)n2nnnc2N1 (stereo not given)

Assay by compound | 65 | 66 | 67 | 68 | 69 | 70 | 71 | 72
Vaccinia mCherry | 6.31µM* | . | 28.2µM* | -12.3% | i | -14.9% | -23.3% | .
Vaccinia Venus | 5.62µM* | -2.8% | ? | -5.4% | -14.1% | -14.0% | -6.6% | 3.1%

Values in list order from above.
Vaccinia Venus, compounds 45–48: -8.8%, -4.8%, -10.5%, -3.4%

Other compounds:
73. NNC(=O)c1cnn(Cc2ccccc2)c1N
74. COC(=O)[C@@]1(Cc2ccc(OC)cc2)[C@H]2c3cc(C(=O)N4CCCC4)n(CCc4ccc(OC)c(Br)c4)c3C[C@H]2CN1C(=O)c1ccccc1
75. O=[N+]([O-])c1cccc(/C([O-])=C(/C(=S)Nc2ccccc2F)[n+]2ccccc2)c1
76. Cn1c(SCC(=O)c2ccc(F)cc2)nnc1-c1ccccn1
77. CCCCCCCCCC[N+](C)(C)CC/C=C1/c2ccccc2Sc2ccc(Cl)cc21
78. CCOC(=O)c1oc2c(CN3CCN(C)CC3)c(O)ccc2c(=O)c1-c1ccc(Br)cc1
79. O=c1c(S(=O)(=O)c2ccccc2)cn(Cc2ccc(F)cc2)c2cc(N3CCOCC3)c(F)cc12
80. O=C(CN1CC(c2ccccc2)CC1=O)Nc1ccc2c(c1)OCO2 (stereo not given)

Assay by compound | 73 | 74 | 75 | 76 | 77 | 78 | 79 | 80
Vaccinia mCherry | . | ? | i | i | ? | -7.9% | -10.9% | -3.1%
Vaccinia Venus | -19.0% | -29.1% | -2.0% | -3.5% | 11.2µM* | -9.5% | -3.3% | -7.0%

81. O=C(Cc1ccc(Br)cc1)N1CCN(Cc2ccccc2)CC1
82. CCCOC(=O)c1[nH]c2c(c1C)C(=O)CC(c1cccs1)C2 (stereo not given)
83. COc1ccc(/C=C2\SC(=S)N(CCCC(=O)NNC(=O)c3ccccc3O)C2=O)cc1
84. Cc1ccc(S(=O)(=O)N(C)C)cc1NC(=O)COC(=O)CNC(=O)C12CC3CC(CC(C3)C1)C2
85. CCCCn1c(N)c(N(CCOC)C(=O)c2c(-c3ccccc3)noc2C)c(=O)[nH]c1=O
86. C#CC(C)(CC)NC(=O)c1cnn2c(C(F)F)cc(-c3ccccc3OC)nc12 (stereo not given)

Assay by compound | 81 | 82 | 83 | 84 | 85 | 86
Vaccinia mCherry | -25.5% | ? | 0.0% | -12.4% | -12.4% | -6.2%
Vaccinia Venus | -22.2% | ? | -18.7% | -8.4% | -12.2% | 2.3%

High-throughput results: PubChem, National Center for Advancing Translational Sciences (NCATS)

Not a hit list. Share with any hit: about 0.82%.
